High-throughput results deposited in PubChem by National Center for Advancing Translational Sciences (NCATS).
VDR inh: inhibitors of human vitamin D receptor; Potency, µM, without a hit: max response, negative = inhibition, hits mostly inhibitors; 0.93% of 400,000 active; P11473; VDR-SRC2-3 peptide fluorescence polarization, 2 h; active means well fitted inhibition curve with a large enough effect; inconclusive means small, poorly fitted or top-dose-only effect, or another doubt; inactive means no such curve, though single readings can be large or run the other way; further: series mostly up to about 120 µM
Target sequence (P11473 whole entry, looked up): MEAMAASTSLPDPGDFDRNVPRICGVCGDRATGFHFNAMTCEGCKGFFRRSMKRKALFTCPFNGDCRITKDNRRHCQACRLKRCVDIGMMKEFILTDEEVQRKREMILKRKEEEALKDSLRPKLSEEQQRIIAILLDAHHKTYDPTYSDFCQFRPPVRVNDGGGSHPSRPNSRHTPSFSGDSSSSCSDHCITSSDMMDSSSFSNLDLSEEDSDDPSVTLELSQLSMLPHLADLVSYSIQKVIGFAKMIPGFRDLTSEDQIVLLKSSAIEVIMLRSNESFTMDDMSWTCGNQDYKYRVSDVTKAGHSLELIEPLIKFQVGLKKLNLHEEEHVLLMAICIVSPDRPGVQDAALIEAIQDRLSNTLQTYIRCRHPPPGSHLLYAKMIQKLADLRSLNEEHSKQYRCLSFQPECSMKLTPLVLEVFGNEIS
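Inhibition of the VDR/SRC2-3 peptide interaction is quantified by fluorescence polarization. Compounds (23 nl, pintool) incubate with the reagents for 2 hours at ambient room temperature.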
Numbers without * were called inactive; ? = inconclusive; & = joins results of further samples. On the % scale 0 is the no-effect control and ±100 the full control effect; potency means the concentration at half of the fitted maximal effect.

SMILES	VDR inh
O=C1[C@H]2[C@@H](C(=O)N1c1cccc3ccccc13)C1(C(=O)c3ccccc3C1=O)N1CCC[C@@H]21	0%
O=C(O)c1ccc(N2CCCS2(=O)=O)cc1	5%
Cc1[nH]n(-c2ccccc2)c(=O)c1C(=O)Nc1ccccc1	-14%
NNC(=O)C1CC1(c1ccccc1)c1ccccc1 (stereo not drawn)	-1%
Cc1ccc(C)c(Nc2nc(-c3cccnc3)cs2)c1	-15%
Cc1cccc(C)c1NC(=O)c1cccnc1	15%
O=C(N/N=C1/CC2C=CCC12)c1ccco1 (stereo not drawn)	?
CCOC(=O)c1c(C)[nH]c(CCC(=O)Nc2ccccc2OCC)c1C	-1%
O=C(c1ccccc1)c1cccc(NC(=O)c2ccc(Br)o2)c1	4%
O=C(Nc1cccc(-c2csc(-c3ccccc3)n2)c1)c1cccs1	5%
Cn1cc(C(=O)c2ccc(Cl)cc2Cl)cc1C(=O)N/N=C(\N)COc1ccc(F)cc1	-4%
CC(C)(C)c1ccc(C(=O)OCC(=O)N2CCC(c3ccccc3)=N2)cc1	2%
COCC(=O)N1CCC2CC1c1cc(Cl)ccc12 (stereo not drawn)	-26%
CC(C)C1OC(c2cccc(NC(=O)c3cccs3)c2)OCC1(C)C (stereo not drawn)	-12%
O=C(Nc1cc(Cl)ccc1N1CCOCC1)c1ccc(Br)o1	-9%
COc1cccc(C2C(C#N)=C(N)Oc3cc(C)oc(=O)c32)c1OC (stereo not drawn)	-9%
CC1CCCC(NC(=O)CCn2c(=O)oc3ccccc32)C1C (stereo not drawn)	6%
CN(C)/C=C/c1onc(-c2ccccc2Cl)c1C#N	-1%
COc1ccc(C(=O)N[C@H](C(=O)NC2CCCCC2)C(C)C)cc1	-1%
Cc1ccc(S(=O)(=O)n2cccc2CO)cc1	-11%
CSc1cccc(NC(=O)NNC(=O)C2CCN(S(=O)(=O)N(C)C)CC2)c1	4%
COc1ccc(OC)c(NC(=O)CSc2nc(O)cc(=O)n2CC(C)C)c1	-5%
O=C1/C(=C\c2ccccn2)SC(=S)N1Nc1ncc(C(F)(F)F)cc1Cl	?
Cc1ccc(NC(=S)N/N=C/c2c(C)[nH]c3ccccc23)cc1	7%
CCOC(=O)c1cc(N2CCCCC2)nc2ccccc12	-8%
CC(=O)Oc1ccc2c(=O)c(-c3ccccc3)c(C)oc2c1	2%
CCC1(C)Cc2ccccc2-c2nc(NCCCO)n(-c3ccccc3)c(=O)c21 (stereo not drawn)	-6%
COCCCNC(=O)/C=C/c1ccc(OCc2c(F)cccc2Cl)cc1	8%
COc1cc(C(=S)N2CCOCC2)ccc1OC(=O)c1ccc([N+](=O)[O-])cc1[N+](=O)[O-]	0%
O=S(=O)(Nc1ncnc2sccc12)c1cccc(F)c1	-18%
COc1ccc(C2(C(F)(F)F)NC(=O)N(C)C(=O)N2C)cc1 (stereo not drawn)	-9%
COc1ccc(NC(=O)NCCCN2CCCCC2C)cc1 (stereo not drawn)	-16%
CS(=O)(=O)N(CC(=O)NCCSCc1ccccc1)c1ccccc1Cl	-10%
Cc1oc2c(C)c3oc(=O)c(CCC(=O)N4CCC(C(=O)NCCC(=O)O)(c5ccccc5)CC4)c(C)c3cc2c1C	-8%
O=C(Nc1cc(N2CCOCC2)ncn1)c1ccccc1	-3%
CC(C)(C)OC(=O)N[C@@H](Cc1ccccc1)C(=O)NCC1CCC(C(=O)O)CC1 (stereo partly drawn)	2%
c1ccc(CNc2nc3ccccc3[nH]2)cc1	7%
O=C(C1CCN(S(=O)(=O)c2cccc3nsnc23)CC1)N1CCn2c1nc1ccccc12	-6%
Cc1cc(C)n(C(=O)c2ccc([N+](=O)[O-])cc2N)n1	-12%
CC(=O)N1CCc2cc(S(=O)(=O)CCC(=O)NCCc3ccccc3)ccc21	9%

Rewritten as a markdown table: 3 of the compounds above.
| molecule | VDR inh |
| --- | --- |
| c1ccc(CNc2nc3ccccc3[nH]2)cc1 | 7% |
| O=C(C1CCN(S(=O)(=O)c2cccc3nsnc23)CC1)N1CCn2c1nc1ccccc12 | -6% |
| Cc1cc(C)n(C(=O)c2ccc([N+](=O)[O-])cc2N)n1 | -12% |

Following part
SMILES	VDR inh
CN1OC[C@@H]2CN(C(=O)C(C)(C)C)[C@H](c3cccc(-c4ccccc4)c3)C[C@@H]21	-18%
COc1ccccc1CN1C(=O)[C@@H]2Cc3c([nH]c4ccccc34)C(C)(C)N2C1=O	-18%
O=C(NCCC1=CCCCC1)C(c1ccccc1)c1ccccc1	9%
CCC(C)(C)NC(=O)CN(C(=O)c1snc(C(N)=O)c1N)c1ccc2nc(C)sc2c1	2%
COc1cc2[nH]c3c(c2cc1OC)CCN1CCCC[C@@H]31	12%
O=C(Nc1ccccc1N1CCOCC1)c1ccc([N+](=O)[O-])o1	4%
COc1ccc(N(CC(=O)NC2CC3CCC2C3)S(=O)(=O)c2ccccc2)cc1Cl (stereo not drawn)	-10%
CNC(=O)C12CC3CC(C1)CC(c1ccc(C)cc1)(C3)C2	-6%
CCNC(=S)N/N=C/c1sc(N2CCCCC2)nc1-c1cccs1	-6%
CC1CCN(CC(=O)Nc2ccc3c(c2)OCO3)CC1	11%
O=C(CSc1nc(-c2ccco2)nc2cc(=O)[nH]n12)Nc1ccccc1F	-5%
CCCN1C(=O)C(O)(CC(=O)c2ccc(CC)cc2)c2ccccc21 (stereo not drawn)	5%
CSc1nc2[nH]ncc2c(=O)[nH]1	-14%
CCCCNc1nc(Cl)nc(Nc2ccc(C)cc2)n1	19%
Oc1cccc(/C=N/N=C/c2cccc(O)c2O)c1O	-16%
CC(Sc1nc(N)cc(=O)[nH]1)C(=O)Nc1sc2c(c1C#N)CCCC2 (stereo not drawn)	5%
CCn1c(CN2CCOCC2)nc2cc(NC(=O)c3cc(OC)c(OC)c(OC)c3)ccc21	4%
O=S(=O)(c1ccc(F)cc1)N1CCN=C1SCc1cccc(F)c1	-5%
CC(NC(=O)c1cc(-c2cccnc2)nc2ccc(Br)cc12)C1CCCO1 (stereo not drawn)	-25%
O=C(COC(=O)C1CCN(S(=O)(=O)c2cccs2)CC1)Nc1ccccc1Br	4%
O=C(COc1ccccc1)N1CCN=C1c1ccccc1	7%
Nc1ccc(Nc2ccccc2)c(Cl)c1	0%
CCOC(=O)N/N=C\C=C\c1ccc2c(c1)OCO2	16%
CCOC(=O)COc1ccccc1/C=C1\NC(=O)NC1=O	5%
Cc1cccc(NC(=O)C(=O)NCC(c2cccnc2)N2CCc3ccccc32)c1C (stereo not drawn)	6%
COc1ccccc1C1=NOC(COc2ccc3c(C)cc(=O)oc3c2)C1 (stereo not drawn)	-9%
CCOC(=O)COc1ccc(S(=O)(=O)NCc2cccnc2)cc1	3%
Cn1c(=NC(=O)c2ccc(S(=O)(=O)N3CCCc4ccccc43)cc2)sc2cc(F)ccc21	8%
O=C(CSc1nnc(C2COc3ccccc3O2)o1)N1CCCc2ccccc21 (stereo not drawn)	10%
COc1ccc(Br)cc1/C=N/n1nnnc1N	8%
O=C(O)Cn1c(=O)c2c3c(sc2n(Cc2ccccc2)c1=O)CCCC3	-26%
Cc1ccc(-c2ccc(CCC(=O)O)n2-c2ccc(C(C)C)cc2)cc1	-19%
COc1ccc(-c2cc(C(F)(F)F)c(C#N)c(SCC(=O)Nc3ccccc3F)n2)cc1	9%
CCOC(=O)c1c(NC(=O)/C=C/C(=O)O)sc(C)c1-c1ccc(Cl)cc1	40µM*
COc1cccc(CCNC(=O)c2cnc3sc(N4CCOCC4)nn3c2=O)c1	11%
CC1CCN(c2ccc3nnc(CCC(=O)Nc4cccc(F)c4)n3n2)CC1	-23%
CCOC(=O)c1cc(-c2ccccc2)n(-c2cccc(C(=O)Nc3cccc(SC)c3)c2)c1C	26%
O=C(CSc1ccccc1)NCc1ccccn1	?
O=C(COC(=O)c1cccnc1Nc1ccccc1F)NC1CC1	4%
CCOc1ccc(-c2nnc(SCC(=O)NCCC(C)C)nc2-c2ccc(OCC)c(OC)c2)cc1OC	4%

5 records picked at random from the list so far, as already listed:
SMILES	VDR inh
CC(=O)N1CCc2cc(S(=O)(=O)CCC(=O)NCCc3ccccc3)ccc21	9%
O=S(=O)(Nc1ncnc2sccc12)c1cccc(F)c1	-18%
O=C(Nc1cc(Cl)ccc1N1CCOCC1)c1ccc(Br)o1	-9%
Cc1cccc(C)c1NC(=O)c1cccnc1	15%
O=C(CSc1nnc(C2COc3ccccc3O2)o1)N1CCCc2ccccc21 (stereo not drawn)	10%

The list goes on:
SMILES	VDR inh
COCCCn1c(SCC(=O)Nc2ccc3c(c2)OCCO3)nnc1-c1ccoc1C	-9%
NC(=O)c1ccccc1NC(=O)NC1CCCCC1	4%
CSCC(O)Cn1[nH]c(=O)c2cc(Cl)c(Cl)cc2c1=O (stereo not drawn)	3%
COc1ccc(NS(=O)(=O)c2cc(NC(=O)c3ccc(Cl)cc3)ccc2N2CCOCC2)cc1	6%
O=CN1CCCN(C(=O)CC2C(=O)NCCN2Cc2cccc(Oc3ccccc3)c2)CC1 (stereo not drawn)	-13%
CC(=O)Nc1ccc(S(=O)(=O)c2ccc(N)cc2)cc1N	8%
O=C(Cn1cnc2ccccc21)NCc1ccccc1	1%
O=C(COC(=O)/C=C/c1cccs1)NC(=O)Cc1ccccc1	9%
COc1ccc(-n2c(Cc3cc(=O)[nH]c(=O)[nH]3)nnc2SCC(=O)N2CCCC2)cc1	-2%
N#Cc1c2c(c(Nc3ccc(O)cc3)n3c1nc1ccccc13)CCC2	-21%
COc1cc(CNc2ccc(CNc3ncn[nH]3)cc2)cc(Cl)c1OCc1ccccc1	8%
CSCC[C@H](NC(=O)OC(C)(C)C)C(=O)NCC1CCC(C(=O)N[C@@H](Cc2ccccc2)C(=O)O)CC1 (stereo partly drawn)	-4%
N#C/C(=C\c1cccc([N+](=O)[O-])c1)c1nnc2n1CCCCC2	-29%
O=C(Cc1ccccc1)Nc1cccc(-c2nc3cccnc3s2)c1	11%
CCC(C)C(=O)Nc1ncc2c(n1)CC(c1cccs1)CC2=O (stereo not drawn)	4%
Cc1ccc(NC(=O)CSc2nc(-c3ccco3)cc(C(F)(F)F)n2)c(C)c1	-9%
CN1CCCCc2c1[nH]c1ccccc1c2=O	-11%
O=C(/C=C/c1ccc(Cl)cc1)N1CCN(Cc2ccccc2)CC1	?
COCCOC(=O)C1=C(C)Nc2nc(C)nn2C1c1ccc(F)cc1 (stereo not drawn)	-3%&1%
Cc1cccc(C)c1NC(=O)CNC(=O)CCNC(=O)c1ccco1	10%

Five structures from above, arranged by number of heavy atoms, smallest number first.
SMILES	VDR inh
O=C(Cn1cnc2ccccc21)NCc1ccccc1	1%
COCCOC(=O)C1=C(C)Nc2nc(C)nn2C1c1ccc(F)cc1 (stereo not drawn)	-3%&1%
Cc1ccc(NC(=O)CSc2nc(-c3ccco3)cc(C(F)(F)F)n2)c(C)c1	-9%
COc1cc(CNc2ccc(CNc3ncn[nH]3)cc2)cc(Cl)c1OCc1ccccc1	8%
O=CN1CCCN(C(=O)CC2C(=O)NCCN2Cc2cccc(Oc3ccccc3)c2)CC1 (stereo not drawn)	-13%

Next section.
SMILES	VDR inh
c1ccc(Cn2sc(=Nc3ccccc3)nc2-c2ccccc2)cc1	-13%
CC(C)(C)OC(=O)NCCc1nnc(SCc2ccc(Cl)cc2Cl)o1	-5%
Cc1cc([N+](=O)[O-])nn1CC(=O)Nc1c(C)n(C)n(-c2ccccc2)c1=O	-1%
CCOC(=O)Cn1c(=O)n(-c2cccc(Cl)c2)c2nc(-c3ccccc3Cl)nc(C(N)=O)c21	-9%
COC(=O)Cc1c(C)nc2nc(-c3ccc(Cl)cc3)[nH]n2c1=O	10%
O=C(O)c1ccc(NS(=O)(=O)c2ccc(Cl)c(C(=O)Nc3ccccc3)c2)cc1	-9%&-6%
O=C(CC1SC(=Nc2ccccc2)N(CCc2ccccn2)C1=O)Nc1ccc(F)cc1 (stereo not drawn)	-2%
O=C(Cn1nc(-c2ccccc2)c2ccccc2c1=O)Nc1cccc(O)c1	-17%
CC(C)(C)Nc1c2ccccc2nc2ccccc12	-3%
CCC(C)[C@H](NC(=O)NC1CCN(Cc2ccccc2)CC1)C(=O)OC (stereo partly drawn)	10%
COc1ccccc1-c1coc2c(CN3CCOCC3)c(O)ccc2c1=O	-1%
N#Cc1ccc(N2C(=O)[C@@H]3C(C(=O)c4ccc5ccccc5n4)=NN[C@@H]3C2=O)cc1	-30%
O=C(c1ccccc1)N1CCN(C2C3CC4CC(C3)CC2C4)CC1 (stereo not drawn)	5%
COc1ccccc1NC(=O)N1CCC(NC(=O)C(Cc2ccccc2F)NC(C)=O)CC1 (stereo not drawn)	-3%
CCN(CC)S(=O)(=O)c1cccc(-c2n[nH]c(=S)n2/N=C/c2ccc(C(=O)OC)cc2)c1	?
COc1ccc(-n2c(SCC(=O)NCc3ccccc3)nc3ccsc3c2=O)cc1	5%
CCOC(=O)C1(P(=O)(c2ccccc2)c2ccccc2)CCC1	-21%
O=C([C@@H]1CC=C[C@@H]2CCN(C3CCCCC3)C(=O)[C@@H]21)N1CCN(c2ccccc2)CC1	0%
O=C(CCCN1C(=O)/C(=C/c2cccs2)SC1=S)Nc1ccccn1	-19%
O=C1C=C(NC2CCCC2)CC(c2ccccc2)C1 (stereo not drawn)	2%
CSc1nc2sc3c(c2c(=S)[nH]1)CC(C)(C)OC3	?
COc1ccc2c(C)c(C(=O)O)oc2c1	22%
O=C(NCc1ccccc1F)c1ccc(CSc2nc3cccnc3n2Cc2ccccc2)cc1	-4%
CCS(=O)(=O)NCCc1sc2nc(-c3ccc(OC)cc3)nn2c1C	2%
O=C(c1cnn2c(C(F)F)cc(C3CC3)nc12)N1CCCC1	-9%
O=C(c1ccc(OC2CCN(CCc3ccccc3)CC2)cc1)N1CCCC(CCCO)C1 (stereo not drawn)	14%

Not all compounds are listed; the hit share may differ from the screen's.
